TRPML1 ag: agonists of human TRPML1 channel | 410,000 compounds, 0.12% hits | activation, % (no concentration beside the values) | TRPML1-expressing cells, Ca2+ dye fluorescence, FDSS; host cell line not named in the record; reference of the full effect not given here | Q9GZU1; in the data active = activation above about 50%; inconclusive = about 30% to 50%; inactive = below about 30%; also: 0% is about no effect; the text of the record puts the active cut at 80%
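Kinetic FDSS Ca2+ read in Tet-induced TRPML1-DL cells (ABD Ca8 dye plus quencher, 45-90 min RT loading): baseline, then compound, then 110 s agonist window; EC80 agonist 54-4 at 4uM final added afterwards for a 110 s antagonist window.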
PINK1 modulator: modulators of PINK1 expression. PINK1 immunofluorescence, high-content cytometry, 24 h. Potency, µM (titrated, usually from 76.6 µM), without a hit: at the highest dose activation (PINK1 increase), most hits filed as activators. 410,000 compounds, 0.2% hits; active = well fitted activation curve with a large enough effect; inconclusive = small, poorly fitted or top-dose-only effect; inactive = flat fitted curve, though single readings scatter; cell line not stated here;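 also: potency is read from the fitted curve at half-maximal effect; % of control where 0% means no effect; nearly all actives have a fitted effect of over 65% in size; a mitochondrial uncoupler was the plate control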
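Compound titrations (5 concentrations, 24 h) on a stable cell line; DMSO and CCCP controls. Endpoint: fixed-cell PINK1 immunofluorescence with mitochondrial, cell and nuclear markers, scanned by microplate cytometer.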
TRPML1 inh: inhibitors of human TRPML1 channel. Q9GZU1. TRPML1-inducible cells, Ca2+ dye fluorescence, FDSS; stronger effect = lower value; inhibition of EC80 agonist-evoked calcium signal. activity change, negative = inhibition, % (test concentration not listed). 390,000 compounds, 0.02% hits. AID 624415; in the data active means activity change below about -50%; inconclusive means about -30% to -50%; inactive means above about -30%;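 also: stimulus is agonist 54-4 at its EC80 concentration; % is scaled to controls: 0 for no effect and ±100 for the full control effect; compound concentration not given in the record; the text of the record puts the active cut at -80%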
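Tet-induced TRPML1-DL cells loaded with Ca8 no-wash calcium dye were read kinetically on FDSS. Compound addition was followed by EC80 agonist 54-4 (4 uM final); inhibition was read over 110 s.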
Six1-Eya2 blk: blocks human Six1 binding to Eya2; AlphaScreen GST-Six1/His-Eya2 binding, biochemical; stronger effect = lower value; control for the full effect not named in the record; Q15475+O00167; 360,000 compounds, 0.56% hits; activity change, % (concentration not given with the values); in the data active = activity change below about -65%; inconclusive = about -30% to -65%; inactive = above about -30%; also: % is scaled to controls: 0 for no effect and ±100 for the full control effect
Target sequence (O00167 whole entry, looked up): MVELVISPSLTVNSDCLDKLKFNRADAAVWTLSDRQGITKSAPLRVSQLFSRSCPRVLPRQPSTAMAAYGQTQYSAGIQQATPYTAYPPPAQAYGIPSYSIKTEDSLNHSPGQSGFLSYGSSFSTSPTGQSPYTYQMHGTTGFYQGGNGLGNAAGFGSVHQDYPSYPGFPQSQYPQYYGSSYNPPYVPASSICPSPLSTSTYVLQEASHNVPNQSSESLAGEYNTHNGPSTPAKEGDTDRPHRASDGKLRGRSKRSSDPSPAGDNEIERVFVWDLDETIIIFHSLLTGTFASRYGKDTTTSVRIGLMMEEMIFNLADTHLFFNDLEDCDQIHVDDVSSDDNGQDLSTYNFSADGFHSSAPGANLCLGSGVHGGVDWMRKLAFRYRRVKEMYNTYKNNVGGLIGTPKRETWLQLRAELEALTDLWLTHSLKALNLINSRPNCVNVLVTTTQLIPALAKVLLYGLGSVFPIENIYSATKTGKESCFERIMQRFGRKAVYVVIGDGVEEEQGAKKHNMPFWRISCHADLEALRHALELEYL
Target sequence (Q15475 whole entry, looked up): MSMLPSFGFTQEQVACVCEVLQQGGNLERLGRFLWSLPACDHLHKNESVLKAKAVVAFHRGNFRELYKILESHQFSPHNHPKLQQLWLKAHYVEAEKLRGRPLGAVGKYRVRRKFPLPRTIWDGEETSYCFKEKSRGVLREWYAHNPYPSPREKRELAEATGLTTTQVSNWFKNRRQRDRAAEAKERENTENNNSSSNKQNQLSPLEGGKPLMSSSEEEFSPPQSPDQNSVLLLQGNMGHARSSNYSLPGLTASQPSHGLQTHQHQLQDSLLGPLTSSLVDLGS
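Compounds are tested against tagged Six1 and Eya2 proteins bridged by glutathione donor and nickel acceptor beads; after a one-hour incubation at 37 °C without light, AlphaScreen emission is recorded.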
D2 PAM: positive allosteric modulators of human D2 dopamine receptor | P14416 | DiscoveRx D2 beta-arrestin cells, luminescence, 90 min; 100% = 57 uM dopamine signal | potentiation, % (no concentration beside the values) | 360,000 compounds, 0.23% hits | AID 624464; active = potentiation of 50% or more; inconclusive = 30% to 50%; inactive = 30% or less;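 also: compound concentration not given in the record; tested on top of an EC20 dose of dopamine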
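PathHunter D2 cells, attached overnight at 37 deg C, received compound in DMSO plus dopamine at EC20 (50 nM final) for 90 min at 37 deg C. Beta-arrestin recruitment was read as luminescence after 1 h with detection reagent at ambient temperature.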
D2 ag: activates the human D2 dopamine receptor | 360,000 compounds, 0.084% hits | AID 624465 | DiscoveRx PathHunter D2 beta-arrestin, luminescence, 90 min; 100% = 57 uM dopamine signal | activation, % (test concentration not listed); in the data active = activation above about 40%; inconclusive = about 15% to 40%; inactive = below about 15%; also: compound concentration not given in the record; the text of the record calls up to 30% inactive
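Agonist mode: compounds alone added to overnight-plated D2 PathHunter cells for 90 min at 37 C, with 57 uM final dopamine (EC100) defining full response. Beta-arrestin recruitment detected by chemiluminescent reagent, read after 1 h at ambient temperature.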
* hit, by the source's call; ? = inconclusive; / = no result given; [ ] = dose if it differs, or a comment. Outcome played no part in choosing rows. About 1% of those tested had a hit in this group.

structure	PINK1 modulator	TRPML1 inh	TRPML1 ag	Six1-Eya2 blk	D2 PAM	D2 ag
COc1ccccc1CNC(=O)CSC1=Nc2ccccc2N=C(c2ccc(F)cc2)C1	3.7%	-6	-0.4	/	/	/
CCCCOC(=O)Nc1cccc(Cl)c1C	12%[38.3 µM]	0	-0.7	19	-5	-1.3
Cc1cccc(Nc2nnc(SCC(=O)NCC3CCCO3)s2)c1C (configuration not stated)	1.9%	6	0.7	-4	10	-1.1
CCN(CC)C(=O)CCSc1nnc(-c2ccncc2)o1	-1.1%	-12	-0.1	31	-11	-1.8
CCc1ccccc1N1C(=O)CC(N2CCc3ccccc32)C1=O (configuration not stated)	0.7%	-7	-0.5	-2	-1	1.3
O=C(CCNS(=O)(=O)c1cccs1)N1CCCCCC1	0.8%	2	1.6	10	12	0.5
O=C(Cc1cccc(NC(=O)C2CCN(C(=O)C3CCC3)CC2)c1)Nc1cccc(C(=O)N2CCOCC2)c1	-1.8%	-15	0.8	3	0	0.2
C=CCn1c(CCNC(=O)c2ccccc2F)nnc1SCC(=O)Nc1ccccc1F	0.4%	18	-0.6	20	-11	-1.5
N#CC(=Cc1cccs1)c1nc(-c2ccc(Cl)cc2)cs1	?	11	0.0	-4	1	-0.4
CC(C)(C)C1CCC(C(=O)Nc2ccccc2)CC1 (configuration not stated)	-2.1%[38.3 µM]	-6	-0.3	9	4	2.2
O=C(CCN1C(=O)c2ccccc2S1(=O)=O)N1CCN(c2ccccc2)CC1	-0.9%	-9	0.7	0	-28	4.1
COc1ccc2sc(N(Cc3cccnc3)C(=O)c3ccco3)nc2c1	0.9%	41	3.3	/	/	/
CN(Cc1ccccc1)C(=O)c1[nH]cnc1C(=O)NC1CCN(C(=O)OC(C)(C)C)CC1	-0.5%	2	-0.5	-3	2	11
Cc1noc(C)c1NC(=O)Nc1ccc2c(c1)C(=O)N([C@H](C)CO)C[C@H](C)[C@@H](CN(C)C(=O)Nc1ccccc1)O2	-0.1%	-2	0.4	7	3	-0.7
N#Cc1cccc(NS(=O)(=O)c2ccccc2Cl)c1	0.2%	-1	0.2	6	-2	2.0
COc1ccc(C(=O)N2CCN(S(=O)(=O)c3ccc4c(c3)OCCO4)CC2)cc1	-0.6%	4	-0.6	7	-12	1.3
COC(=O)c1ccc(C2NC(=S)N(c3ccccc3)C(C)=C2C(=O)Nc2ccccc2OC)cc1 (configuration not stated)	-2.9%	22	4.5	-6	-10	-1.7
O=C(/C=C/c1ccc([N+](=O)[O-])cc1)N1CCN(c2ccccc2F)CC1	-0.4%	0	0.1	-2	5	-1.7
COc1cccc(Cn2cccc(NC(=O)Nc3ccc(C#N)cc3)c2=O)c1	-2.1%	0	-0.6	-1	15	-2.3
Clc1ccc(-c2nc(CSc3ccccn3)cs2)cc1	1.8%	-4	2.2	37	-6	-2.9
C[Si](C)(C)n1ccnc1	2.2%	0	-0.5	1	-4	3.9
C[n+]1cnn2c1SCC1(COC1)C2	-0.6%[38.3 µM]	-6	-0.3	4	-8	-2.8
COc1cc(OC)cc(C(=O)NNC(=O)CCc2nc3ccccc3c(=O)[nH]2)c1	2.2%	3	-0.4	-8	-2	-2.3
O=C(NCc1ccco1)/C(=C/c1ccco1)NC(=O)c1ccco1	0.7%	5	0.1	-1	-5	-0.9
CCCn1c(NC(=O)c2ccc(Cl)c(S(=O)(=O)N3CCCC3)c2)nc2ccccc21	11%	62	4.5	-10	-29	-8.4
COc1ccccc1OCCCCn1c(-c2ccc(Cl)cc2)nc2ccccc2c1=O	-0.5%	-17	-0.2	/	/	/
CC(=O)C1=C(O)C(=O)N(c2cccc(Br)c2)C1c1ccccc1Cl (configuration not stated)	0.7%	30	0.5	-5	4	0.1
COCCn1c(SCC(=O)NCc2ccc3c(c2)OCO3)nnc1-c1c[nH]c2ccccc12	1.1%	-2	-0.5	-5	-1	-2.6
CCOc1cc(S(=O)(=O)NCCN2CCOCC2)c(C)cc1C	-1.7%	-1	0.5	-2	-28	-5.1
O=S(=O)(N/N=C\c1ccc2c(c1)OCO2)c1ccc(F)cc1	2.0%	-9	-0.3	-1	-1	-0.6

Next section; it opens with the three that closed the last part.
structure	PINK1 modulator	TRPML1 inh	TRPML1 ag	Six1-Eya2 blk	D2 PAM	D2 ag
COCCn1c(SCC(=O)NCc2ccc3c(c2)OCO3)nnc1-c1c[nH]c2ccccc12	1.1%	-2	-0.5	-5	-1	-2.6
CCOc1cc(S(=O)(=O)NCCN2CCOCC2)c(C)cc1C	-1.7%	-1	0.5	-2	-28	-5.1
O=S(=O)(N/N=C\c1ccc2c(c1)OCO2)c1ccc(F)cc1	2.0%	-9	-0.3	-1	-1	-0.6
Cc1nc2c(-c3ccccc3)c(C)nn2c(C)c1CCC(=O)NCc1cccc(Cl)c1	3.3%	-16	0.6	/	/	/
Cc1ccc(S(=O)(=O)Cc2ccc(C(=O)NCc3ccc4c(c3)OCO4)o2)cc1	-15%[38.3 µM]	4	-0.7	0	-10	-2.2
NS(=O)(=O)c1cccc(NC(=O)COC(=O)CNC(=O)c2ccc(-c3ccccc3)cc2)c1	-1.1%	-10	-0.5	-4	2	-1.1
O=C(COC(=O)/C=C/c1ccc(OC(F)F)cc1)NCCN1C(=O)CSC1=O	-1.7%	14	-0.4	-1	1	1.7
Nn1c(COc2ccccc2F)nnc1SCC(=O)NC1CC1	3.5%	-6	-0.5	1	12	-2.2
Cc1cc(=O)n2ccccc2c1C#N	-5.5%[38.3 µM]	-8	0.7	0	-5	1.8
COc1ccc(CCC(=O)NCCc2ccc(OC)c(OC)c2)cc1	2.3%	-5	1.8	4	-1	-1.3
O=C(O)c1cccc(Cn2cc(Cl)cn2)c1	-0.2%	-3	0.0	1	-10	1.9
O=C(NCCCN1CCOCC1)c1ccccc1N1C(=O)[C@@H]2Cc3c([nH]c4ccccc34)C(c3cccc(Cl)c3)N2C1=O (some centres not stated)	-0.9%	/	/	-15	-5	-2.7
CCN(CC)C(=O)Cn1cc(SCC(=O)NC2CCCC2)c2ccccc21	0.5%	0	0.3	-3	0	-1.3
COc1ccc(C2C(C(=O)N3CCC(C(N)=O)CC3)CC(=O)N2c2ccc(OC)cc2)cc1 (configuration not stated)	1.2%	-8	0.0	1	-3	1.7
CCOc1cccc(SCc2noc(C(=O)NCC3CCCO3)c2C(=O)O)c1 (configuration not stated)	1.9%	-7	-0.6	-1	-7	-1.6
CC[C@H](CO)Oc1cc(NCc2cccc(N)c2)c2ncn(C(C)C)c2c1	-0.4%	/	-1.0	-4	/	/
O=C(NCCc1ccc(Cl)cc1)C(=O)NCC(c1ccco1)S(=O)(=O)c1ccccc1 (configuration not stated)	1.9%	9	3.2	/	/	/
Clc1ccc(CN2C3=NCCCN3c3ccccc32)c(Cl)c1	0.2%	28	0.2	0	-22	2.0
CCCCCCCCN1[C@@H](CC(=O)OCC)c2cc(C(F)(F)F)ccc2S1(=O)=O	3.0%	-6	-0.6	21	-22	-4.1
CCN(C(=O)c1cc2c(=O)n3ccccc3nc2n1C)C1CCCCC1	0.2%	-27	-1.0	3	-6	2.8
COC(=O)c1cc(Br)ccc1NC(=O)CCNC(=O)c1ccco1	-1.7%	-3	-0.4	0	-2	-2.0
Cc1cccc(NC(=O)c2cnn(-c3ccccc3)c2C)c1C	-0.4%	38	-1.2	-7	2	1.1
CCC(Sc1nnc(-c2ccc(OC)cc2)c(-c2ccc(OC)cc2)n1)C(=O)NC1CCCCC1 (configuration not stated)	2.3%	-9	5.1	/	/	/
CC(=O)Nc1ccc(NC(=O)[C@@H]2CCCN2S(=O)(=O)c2ccc3c(c2)OCCO3)cc1	0.7%	-8	-0.3	-8	0	2.5
CCCCNC(=O)CCNS(=O)(=O)c1ccc(Br)cc1	/	3	0.0	-1	-15	0.8
C/C(=N\NC(=O)CSCc1cccc(Br)c1)c1ccc([N+](=O)[O-])cc1	-1.8%	10	5.6	-1	13	1.3
COc1ccc(OC)c(NC(=O)c2cc(S(=O)(=O)N3CCCC3)cn2C)c1	-0.3%	-6	1.1	-2	-5	1.7
CC1(C)CC(=O)C(C=Nc2ccc3cn[nH]c3c2)=C(O)C1	/	29	0.6	7	3	-0.2
CN(CC(=O)Nc1cccc(F)c1)C(=O)C1CC(=O)N(CCc2ccccc2)C1 (configuration not stated)	-0.2%	15	0.2	0	-17	-5.0
Cc1cc(C)c(C#N)c(SCCS(=O)(=O)Cc2ccc(Cl)cc2)n1	7.5%	33	0.6	1	-7	-0.6
CCCCNC(=O)C(C)N(CCN(C)C)C(=O)CCCCCN1C(=O)NC(c2ccc(Cl)cc2)C(C(=O)OCc2ccccc2)=C1C (configuration not stated)	-1.2%	-4	-0.5	-2	/	-1.4
N#C/C(C(=O)N1CCOCC1)=C1\Nc2ccccc2S1	-0.6%	18	-0.4	-1	-12	-2.8
CCOCCCNC(=O)c1ccc(N2CCOCC2)c(NS(=O)(=O)c2ccc(OC)cc2)c1	-3.0%	2	0.0	1	-11	7.0
O=C(Cc1cccs1)NNC(=S)NC(=O)c1ccc(F)c(F)c1	3.4%	-3	-0.7	-2	-17	4.6
CC(C(=O)Nc1cccc(S(=O)(=O)N2CCOCC2)c1)N1CCN(C/C=C/c2ccccc2)CC1 (configuration not stated)	0.1%	10	-0.7	3	-12	-1.8
CN(C)c1ccc(/C=N/NC(=O)c2ccccn2)cc1	0.5%	-5	-0.5	-9	-4	-0.9
CC(C)c1nc(SCC(=O)N2CCCC2)c2c(=O)n(C)c(=O)n(C)c2n1	-0.6%	0	0.3	-1	-2	-1.6

Screens (PubChem BioAssay)
